GIV Gai3 FP = blocks GIV peptide binding to rat Galpha-i3 | percent of control (FP), % (test concentration not listed) | AID 1224905 | actives 0.42% (n = 210,000) | Galpha-i3/FITC-GIV peptide fluorescence polarization, 90 min; stronger effect = lower value; scaled: aluminum fluoride 0%, vehicle 100% | P08753;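 active = replicate mean at 85% of control or lower, very high polarization wells dropped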;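 also: wells of about 15 µL received 100 nL stock; the first replicate is given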
Target sequence (P08753 whole entry, looked up): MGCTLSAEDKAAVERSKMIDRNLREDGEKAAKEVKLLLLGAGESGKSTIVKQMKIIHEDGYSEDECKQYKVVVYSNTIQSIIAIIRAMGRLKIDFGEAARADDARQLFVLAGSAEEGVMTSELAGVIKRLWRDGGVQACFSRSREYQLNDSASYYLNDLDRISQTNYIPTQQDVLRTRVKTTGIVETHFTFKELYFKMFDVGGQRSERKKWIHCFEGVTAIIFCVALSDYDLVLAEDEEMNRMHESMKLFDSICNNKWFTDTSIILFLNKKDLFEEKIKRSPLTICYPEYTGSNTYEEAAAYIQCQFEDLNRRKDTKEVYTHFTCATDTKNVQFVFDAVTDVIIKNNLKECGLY
Active calls of the source: *. A portion of the library (hit frequency here may not be typical).

SMILES	GIV Gai3 FP
CC1(C)CC(=O)C2=C(C1)OC1=C(C(=O)CC(C)(C)C1)C21C(=O)Nc2ccccc21	103.7
Cc1ccc([N+](=O)[O-])cc1S(=O)(=O)n1c(SCc2ccccc2F)nc2ccccc21	103.7
Cc1cc(C)cc(C(=O)N2CCN(c3nc(C)cc(N4CCCCC4)n3)CC2)c1	102.1
Cc1ccc(CNC(=O)N(C)CCc2noc(C(=O)NCc3ccc4c(c3)OCO4)n2)cc1	102.9
COc1ccc(NC(=O)c2ccc(-c3nc(-c4ccccc4)no3)cc2)cc1OC	104.3
Cc1cc2c(cc1S(=O)(=O)N(C)CC(=O)N(C)C1CCCCC1)OCC(=O)N2	99.1
O=C(CCn1c(N2CCCCC2)nc2ccsc2c1=O)N1CCN(C2CCCCC2)CC1	108.6
Cc1ccc(C)c(N2CCN(S(=O)(=O)c3c(C)sc(C)c3-c3cc(C(F)(F)F)on3)CC2)c1	107.6
CCOC(=O)c1c(S(=O)(=O)N2CCCC(C(=O)NCc3ccccc3)C2)c(C)n(CC)c1C (stereo not given)	107.0
CC(C)n1c(N2CCN(C(=O)CCC3CCCC3)CC2)cc(=O)n(C(C)C)c1=O	100.7
Cc1nc2nc(-c3ccccc3)nn2c(Sc2ccc(N)cc2)c1C	101.3
CCOC(=O)Cc1csc(NC(=O)c2cc3nc(-c4ccc5c(c4)OCO5)cc(C(F)(F)F)n3n2)n1	106.2

Some values from the entries so far:
`Cc1ccc(C)c(N2CCN(S(=O)(=O)c3c(C)sc(C)c3-c3cc(C(F)(F)F)on3)CC2)c1` – GIV Gai3 FP = 107.6
`Cc1ccc(CNC(=O)N(C)CCc2noc(C(=O)NCc3ccc4c(c3)OCO4)n2)cc1` – GIV Gai3 FP = 102.9
`COc1ccc(NC(=O)c2ccc(-c3nc(-c4ccccc4)no3)cc2)cc1OC` – GIV Gai3 FP = 104.3
`Cc1cc(C)cc(C(=O)N2CCN(c3nc(C)cc(N4CCCCC4)n3)CC2)c1` – GIV Gai3 FP = 102.1
`Cc1ccc([N+](=O)[O-])cc1S(=O)(=O)n1c(SCc2ccccc2F)nc2ccccc21` – GIV Gai3 FP = 103.7

Further records follow.
SMILES	GIV Gai3 FP
Cc1ccc(C2OC(=O)c3ccccc32)cc1Cl (stereo not given)	113.6
CCOC(=O)c1c(-c2ccccc2)oc2ccc(OC(=O)c3cc4ccccc4o3)cc12	106.8
COc1ccc(C2(O)CN(c3ccc(C)cc3)C3=[N+]2CCCS3)cc1OC (stereo not given)	107.4
O=C(Nc1cc(Cl)ccc1Oc1ccc(Cl)c2ccccc12)c1cc(Cl)cc(I)c1O	106.1
CC(C)(C)Nc1c(-c2ccccc2)nc2sc(N3CCN(CC(=O)Nc4nccs4)CC3)nn12	106.8
O=C(CN1CCOCC1)N1c2ccccc2Sc2ccc(C(F)(F)F)cc21	115.2
CCOC(=O)C1CCN(S(=O)(=O)c2cc(-c3ccc(=O)[nH]n3)cc(C)c2C)CC1	101.9
CCN1CCCC(N2C(=O)OC(C)(C)C2(C)O)C1 (stereo not given)	100.1
CC(=O)C1=NN(c2ccc(Cl)cc2)C(c2cccs2)N1c1ccccc1 (stereo not given)	104.8
Cc1nc(-c2cc(S(=O)(=O)NCc3ccccc3Cl)c(C)s2)sc1C	102.6
O=C1C=C(c2ccccc2)C[C@H](c2ccccc2)[C@H]1n1nnc2ccccc21	111.2
CCOC(=O)C1=C(C)N=c2s/c(=C/c3cc(OC)c(O)cc3Br)c(=O)n2C1c1ccc(OC)cc1 (stereo not given)	227.7
CC(C)c1ccc(C2CC(=O)NC(SCC(=O)Nc3cccc(C(F)(F)F)c3)=C2C#N)cc1 (stereo not given)	102.8
Cc1ccc(CNS(=O)(=O)c2ccc3c(c2)C(C)(C)CN3CC(=O)N2CCCC2)o1	106.1
O=C(Nc1ccc(OC(F)(F)F)cc1)c1ccc(N2CC3CC(C2)c2cccc(=O)n2C3)c(NC(=O)c2ccncc2)c1 (stereo not given)	106.5
Cn1nc(COCc2ccccc2)c2c1CCN(S(=O)(=O)c1ccc(F)cc1)C2	103.4
O=C(Nc1c2c(nn1-c1ccc([N+](=O)[O-])cc1)CS(=O)(=O)C2)c1ccccc1Br	102.1
CCOc1ccccc1NC(=O)NCCC1CCN(S(=O)(=O)c2ccc(C)cc2)CC1	100.1
Cc1nn2c(c1-c1ccc(Cl)c(S(=O)(=O)N3CCCCC3)c1)NC(=O)CCC2=O	108.4
Cc1ccc(NC(=O)Cn2cnc3sc(C(=O)N4CCC(Cc5ccccc5)CC4)c(C)c3c2=O)cc1Cl	112.6
CC(C)NC(=O)c1ccc(-c2nc3cc(NS(=O)(=O)Cc4ccccc4F)ccc3n2C)cc1	100.2
CCOc1cccc(CN2C(=O)c3ccccc3CC2(C)C(=O)NCc2ccc(OC)cc2)c1 (stereo not given)	101.7
O=c1c2cc3c(cc2nc(SCc2nc(-c4ccc5c(c4)OCO5)no2)n1C1CC1)OCO3	103.0
CC1CCCN(C(=O)C2CCN(c3cncnc3N3CCOCC3)CC2)C1 (stereo not given)	100.6
O=C1Nc2c(S(=O)(=O)O)cc(S(=O)(=O)O)c3cccc1c23	110.5
COc1cc(C)nc(NC(=O)NS(=O)(=O)c2c(C)cc(C)nc2Cl)n1	110.5
COc1cc(NS(=O)(=O)c2ccc(NC(=O)CSc3nc4ccccc4o3)cc2)nc(OC)n1	107.7
O=C(Nc1ccc(F)cc1F)N1CCN(Cc2nc3cccnc3n2-c2cccc(F)c2)CC1	104.6
CCOc1ccc(N(C)S(=O)(=O)c2ccc3[nH]cc(C(=O)N(C)Cc4ccccc4)c(=O)c3c2)cc1	109.7
CCOC(=O)C1=C(C(=O)OCC)SC(=C2C(=S)C(C)(C)N(C(=O)C(C)C)c3cc(OC)ccc32)S1	108.4
CC(C)(C)c1ccc(S(=O)(=O)Nc2cnc(N3CCNCC3)c(C(=O)N3CCCC3)c2)cc1	105.5
CC(C)OC(=O)C1=C(N)OC2=C(C(=O)CC(C)(C)C2)C1c1ccccc1 (stereo not given)	114.8
CC1=C(C(=O)OC(C)(C)C)C(c2ccc(Cl)cc2)C(C#N)=C(SCc2ccc(Cl)cc2)N1 (stereo not given)	104.7
CCN(CC)CCCNC(=O)c1cc2nc(-c3ccc([N+](=O)[O-])cc3)cc(C(F)(F)F)n2n1	99.5
C#CCN1C(=O)C(O)(C(C)C(=O)c2ccccc2)c2ccccc21 (stereo not given)	97.8
Cc1cc(C)n(CC(=O)N(C)CC2(C)CCOCC2)n1	110.0
Cn1c(=O)n(CCC(=O)N2CCCC2)c(=O)c2cc(S(=O)(=O)NC3CC3)ccc21	111.4
CC(=O)Nc1cccc(N2CC(C(=O)Nc3ccc(Br)cc3F)CC2=O)c1 (stereo not given)	107.7
CC(C)NC(=O)c1ccc(-c2nc3cc(NS(C)(=O)=O)ccc3n2C)cc1	101.5
CCN(CC)c1ncnc2sc(C(=O)Nc3cnc4ccccc4c3)c(C)c12	110.4
CCOC(=O)c1[nH]c(C)c(CN(Cc2ccc(OC)cc2)C(=O)Nc2ccc(OC)cc2OC)c1C	102.0
CCOc1ccc(-c2noc(CSc3nc4cc5c(cc4c(=O)n3CCC(C)C)OCO5)n2)cc1	105.5
c1ccc(Oc2ccc(-c3[nH]c(-c4ccccc4)nc3-c3ccccc3)cc2)cc1	103.2
CCOC(=O)COc1ccc2c(=O)c(Oc3ccc(OC)cc3)c(C(F)(F)F)oc2c1	101.3
CCCOCCOC(=O)C1=C(C)NC2=C(C(=O)CC(C)(C)C2)C1c1cc(Cl)c(O)c(OCC)c1 (stereo not given)	106.9
CC1=C(C(=O)OC2CCCCCC2)C(c2cccc(Cl)c2Cl)CC(=O)N1 (stereo not given)	106.6
COc1ccc(NC(=O)Cn2c(=O)c(CCC(=O)NC3CCCC3)nc3ccccc32)cc1Cl	103.6
CCOC(=O)C1=NN(c2cccc(Cl)c2)C2(S1)SC(c1ccc(C)cc1)(c1ccc(C)cc1)c1ccccc12 (stereo not given)	108.5
COc1cc(C2Nc3ccc4ccccc4c3C3=C2C(=O)CC(C)(C)C3)ccc1OCc1ccc(C)cc1 (stereo not given)	108.0
Cc1nn(-c2nc3ccccc3n2C)c2c1C(c1ccc(F)cc1F)CC(=O)N2 (stereo not given)	99.5
CCOc1cc(/C=C2/SC(=S)N(C)C2=O)ccc1OC(=O)c1ccc([N+](=O)[O-])cc1[N+](=O)[O-]	106.9
O=S1(=O)Nc2ccccc2-c2ccccc21	112.3
Cc1ccc(-c2[nH]ncc2CN2CCCC2c2cc(C(C)C)no2)cc1C (stereo not given)	96.6
CCOc1cccc2cc(C(=O)Nc3ccccc3F)c(=Nc3ccc(C(=O)O)cc3)oc12	109.1
O=C(Nc1ccccc1)Nc1ccc(OCc2cc(=O)n3ccccc3n2)cc1	102.5
CC(C)CNC(=O)C1CCCN(c2ncnc3c2oc2ccccc23)C1 (stereo not given)	108.7
O=C(Nc1ccccc1Br)c1cc(S(=O)(=O)N2CCN(c3ccccc3)CC2)ccc1F	115.6
COc1ccc(Cl)cc1NC(=O)CCc1nc(CSc2nc3ccccc3o2)no1	105.2
Nc1nc(CSc2nnc3c(n2)[nH]c2ccccc23)nc(N2CCOCC2)n1	109.0
Cc1nn(-c2nc3ccc(Br)cc3s2)c2c1C(c1c(F)cccc1F)CC(=O)N2 (stereo not given)	102.3

Next section
SMILES	GIV Gai3 FP
O=C(Nc1ccccc1)c1nnc(C2CCN(C(=O)Nc3ccc(Br)cc3)CC2)s1	104.1
O=C(CCCCSc1nc2ccccc2[nH]1)Nc1cccc2ccccc12	105.1
COc1ccc(NC(=O)CSc2nc(N3CCc4ccccc4C3)nc3ccccc23)cc1	112.1
CCn1c2ccccc2c2cc(C3C4CCCC=C4C(C#N)=C(N)C3(C#N)C#N)ccc21 (stereo not given)	111.7
O=C1C2C3c4ccccc4C(c4ccccc43)C2C(=O)N1c1cccc(Oc2ccccc2)c1 (stereo not given)	101.6
COc1ccc(-c2noc(N3CCC(C(=O)N4CCN(c5ccccn5)CC4)CC3)n2)cc1OC	100.9
CCc1ccc(NC(=O)COc2cccc3c(=O)n(C)ccc23)cc1	106.8
CCOc1ccc(N/C(SC)=C(/C#N)C(N)=O)cc1	117.5
Cc1ccc(C(=O)N/C(=C\c2sccc2C)C(=O)NCCCN2CCOCC2)cc1	108.3
COc1cc(OC)c(C2C(C(=O)N3CCOCC3)=C(C)NC3=C2C(=O)CC(C)(C)C3)cc1OC (stereo not given)	99.6
CCN(CC)c1ccn(-c2nc(-c3ccccc3)oc2-c2ccccc2)c(=O)n1	114.7
Cc1nc2scc(C)n2c(=O)c1NC(=O)C(C)C	102.4
Cc1ccc2oc(SCC(=O)N3CCc4ccccc4C3)nc2n1	102.5
COc1ccc(C2=NN3C(C2)c2cc(OC)ccc2OC32CCCCC2)cc1 (stereo not given)	111.6
Cc1ccc(S(=O)(=O)Nc2cc(Br)c3oc4c(c3c2)C(=O)CCC4)c(C)c1	114.9
CCOc1ccc(C(=O)N2CCCC(c3nc(-c4ccc(NC(C)=O)cc4)no3)C2)cc1 (stereo not given)	106.2
CN(C)c1ccc2nc3c(=O)[nH]c(=O)[nH]c3nc2c1	77.0*
Cc1cc(N2CCOCC2)n2nc(CN3CCC4(CC3)OCCO4)nc2n1	102.9
CCOc1ccc(NC(=O)CSc2nnc(NC(=O)c3c(F)cccc3Cl)s2)cc1	105.5
CCOC(=O)C1CCN(CN2C(=O)C3(OCC(C)(C)CO3)c3ccccc32)CC1	107.4
CCOC(=O)C1C(=O)C=C(C)C(C(=O)OCC)C1c1ccccc1 (stereo not given)	107.1
O=C1Nc2ccccc2Oc2cc(Cl)c(S(=O)(=O)N3CCCC3)cc21	104.8
N#C/C(C(=O)Nc1ccccc1)=C(/Nc1ccccc1)SCc1ccc(Cl)cc1	108.7
FC(F)(F)c1ccc(CNC2=NCCNC23CCOCC3)cc1	107.6

Ordered by molar mass (largest number first): part of the list above
SMILES	GIV Gai3 FP
CCOc1ccc(NC(=O)CSc2nnc(NC(=O)c3c(F)cccc3Cl)s2)cc1	105.5
CCOc1ccc(C(=O)N2CCCC(c3nc(-c4ccc(NC(C)=O)cc4)no3)C2)cc1 (stereo not given)	106.2
CCOC(=O)C1CCN(CN2C(=O)C3(OCC(C)(C)CO3)c3ccccc32)CC1	107.4
O=C1Nc2ccccc2Oc2cc(Cl)c(S(=O)(=O)N3CCCC3)cc21	104.8
Cc1ccc2oc(SCC(=O)N3CCc4ccccc4C3)nc2n1	102.5
CN(C)c1ccc2nc3c(=O)[nH]c(=O)[nH]c3nc2c1	77.0*

Exported with values ahead of the structure: entries from further up
GIV Gai3 FP,SMILES
106.9,CCCOCCOC(=O)C1=C(C)NC2=C(C(=O)CC(C)(C)C2)C1c1cc(Cl)c(O)c(OCC)c1 (stereo not given)
100.6,CC1CCCN(C(=O)C2CCN(c3cncnc3N3CCOCC3)CC2)C1 (stereo not given)

(next part)
SMILES	GIV Gai3 FP
O=C(NC1CCCCC1)C1CCN(c2ccc3cc(S(=O)(=O)N4CCCCC4)ccc3n2)CC1	103.7
Cc1ccc2c(c1)C(c1ccc(Br)cc1)=NNC(c1ccccc1)=N2	114.6
O=C1CCCC2=C1C(c1ccc(O)c(O)c1)Nc1ccc3ncccc3c12 (stereo not given)	104.5
COc1ccc2c(c1)-c1c(ssc1=S)C(C)(C)N2C(=O)CN1C(=O)c2ccccc2C1=O	100.2
Nn1cnc2c(c1=O)C1(CCCCC1)Cc1ccccc1-2	104.6
CCN(CC)S(=O)(=O)c1ccc2c(c1)Cc1cc(S(=O)(=O)N(CC)CC)ccc1-2	98.9
O=C(Nc1ccc(Br)cc1)c1ccc(F)c(S(=O)(=O)N2CCN(c3ccccc3)CC2)c1	101.4
CC(=O)Nc1ccc(-n2sc3c(c2=S)-c2ccccc2NC3(C)C)cc1	108.9
CC(=O)N1CCc2cc(S(=O)(=O)N3CCC(CC(=O)N(C)Cc4ccccc4)CC3)ccc21	99.9
COc1ccc(-c2nnc(SCC(=O)NC(C)(C)C)nc2-c2ccc(OC)cc2)cc1	103.7
Cc1ccc(CNC(=O)C2(C)CCCN(C(=O)c3ccc(Cl)cc3)C2)cc1 (stereo not given)	122.0
CCOC(=O)c1ccc(NC(=O)CSc2nc3ccccc3c(=O)n2CCCC(=O)NCC2CCCO2)cc1 (stereo not given)	106.0
CC(=O)Nc1cccnc1-c1ccc(C(=O)Nc2ccc(Br)cc2)cc1	113.2
